Screening results: PubChem BioAssay, National Center for Advancing Translational Sciences (NCATS)
TRPML1 inh – human mucolipin-1 channel inhibition; Q9GZU1; TRPML1-inducible cells, Ca2+ dye fluorescence, FDSS; hits give low values; inhibition of EC80 agonist-evoked calcium signal; activity change, negative = inhibition, % (no concentration beside the values); 390,000 compounds, 0.02% hits; in the data active means activity change below about -50%; inconclusive means about -30% to -50%; inactive means above about -30%;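 also: stimulus is agonist 54-4 at its EC80 concentration; % is scaled to controls: 0 for no effect and ±100 for the full control effect; compound concentration not given in the record; the text of the record puts the active cut at -80%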
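Tet-induced TRPML1-DL cells loaded with Ca8 no-wash calcium dye were read kinetically on FDSS. Compound addition was followed by EC80 agonist 54-4 (4 uM final); inhibition was read over 110 s.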
TRPV1 PAM – potentiators of human vanilloid receptor 1 (TRPV1). potentiation, % at 8.33 µM. AID 540277. Q8NER1. TRPV1-expressing cells, Fluo-8 calcium influx, capsaicin EC20 potentiation; host cell line not named in the record; control for the full effect not named in the record. 320,000 compounds, 0.02% hits; active means potentiation above 80%; inconclusive means 30% to 80%; inactive means below 30%; also: 0% is about no effect
Target sequence (Q8NER1 whole entry, looked up): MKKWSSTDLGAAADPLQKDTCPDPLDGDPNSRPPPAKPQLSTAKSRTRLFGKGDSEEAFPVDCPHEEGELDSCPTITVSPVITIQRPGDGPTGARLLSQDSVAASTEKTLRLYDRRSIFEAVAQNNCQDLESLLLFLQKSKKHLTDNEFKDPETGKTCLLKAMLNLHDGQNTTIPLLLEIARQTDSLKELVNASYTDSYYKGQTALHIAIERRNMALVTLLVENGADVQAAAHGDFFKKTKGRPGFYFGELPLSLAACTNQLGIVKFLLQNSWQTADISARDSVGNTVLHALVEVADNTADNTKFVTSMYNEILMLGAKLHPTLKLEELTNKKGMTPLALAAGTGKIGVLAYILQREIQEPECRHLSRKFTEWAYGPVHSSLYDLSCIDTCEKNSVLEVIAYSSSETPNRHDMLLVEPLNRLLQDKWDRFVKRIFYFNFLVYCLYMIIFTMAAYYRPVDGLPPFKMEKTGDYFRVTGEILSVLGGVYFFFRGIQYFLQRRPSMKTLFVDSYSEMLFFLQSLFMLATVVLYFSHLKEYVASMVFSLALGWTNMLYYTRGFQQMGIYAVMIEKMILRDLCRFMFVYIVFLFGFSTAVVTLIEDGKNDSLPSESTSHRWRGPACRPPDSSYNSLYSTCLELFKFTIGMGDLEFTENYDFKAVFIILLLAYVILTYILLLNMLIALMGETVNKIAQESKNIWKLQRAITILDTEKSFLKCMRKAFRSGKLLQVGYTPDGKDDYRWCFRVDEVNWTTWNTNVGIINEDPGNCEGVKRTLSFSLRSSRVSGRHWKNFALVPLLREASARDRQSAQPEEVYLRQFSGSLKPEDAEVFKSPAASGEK
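TRPV1-expressing cells were cultured overnight at 35.5C and loaded with Fluo-8 calcium dye for 40 to 90 min at room temperature. After a 10 s baseline, compound was added and calcium influx was read kinetically for 3 min (ex 480/em 520 nm).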
ClpP mod – qHTS Assay for Activators of ClpP; ATP-dependent Clp protease proteolytic subunit (Bacillus subtilis (strain 168)), P80244; purified B. subtilis ClpP, FRET peptide cleavage, 20 min; Potency, µM (top dose mostly 57.5 µM), inactives show at the top dose activity change, negative = active; 340,000 compounds, 1.9% hits; AID 651965, 2013; active = well fitted falling curve with a large enough effect; inconclusive = small, poorly fitted or top-dose-only effect; inactive = no such curve, though single readings can be large or run the other way; also: potency is read from the fitted curve at half-maximal effect; the source files actives as falling curves though it sought activators and does not explain the sign; nearly all actives have a fitted effect of over 65% in size; many hits overshoot -100%
Target sequence (P80244 whole entry, looked up): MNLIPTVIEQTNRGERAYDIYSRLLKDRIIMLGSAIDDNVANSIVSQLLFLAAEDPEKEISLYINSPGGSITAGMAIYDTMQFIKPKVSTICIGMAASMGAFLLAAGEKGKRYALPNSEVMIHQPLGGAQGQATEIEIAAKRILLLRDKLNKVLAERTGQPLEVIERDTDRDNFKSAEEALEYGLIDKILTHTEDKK
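FRET quenching reversal measured ClpP activation: 10 microg/mL B. subtilis ClpP at pH 8 with the FRET-FV decapeptide, read at 430 nm after 320 nm excitation. The 20-min minus 0-min signal was scaled between DMSO/no-enzyme wells and ADEP (5.8 microM final).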
TRPML1 ag – human mucolipin-1 channel agonism; Q9GZU1; TRPML1-expressing cells, Ca2+ dye fluorescence, FDSS; host cell line not named in the record; reference of the full effect not given here; activation, % (test concentration not listed); 410,000 compounds, 0.12% hits; AID 624414; in the data active = activation above about 50%; inconclusive = about 30% to 50%; inactive = below about 30%; also: 0% is about no effect; the text of the record puts the active cut at 80%
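Agonist activity was taken from a 110 s kinetic Ca2+ dye read on the FDSS after pinning compounds onto TRPML1-DL cells. The cells were seeded at 1,500/well with Tet inducer, incubated about 16 h, then dye-loaded at room temperature.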
Sfp PPTase inh – Sfp phosphopantetheinyl transferase inhibition; Q9F4F7; Biochemical Sfp PPTase activity, qHTS; Potency, µM, for inactives: max response, negative = inhibition, actives largely listed as inhibitors; 310,000 compounds, 3.5% hits; AID 1490; active = well fitted inhibition curve with a large enough effect; inconclusive = small, poorly fitted or top-dose-only effect, or another doubt; inactive = no such curve, though single readings can be large or run the other way;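 also: the enzyme is Sfp with the accession as filed and its product quenches rhodamine fluorescence; potency is read from the fitted curve at half-maximal effect; 0% = enzyme reaction without inhibitor and -100% = no enzyme wells; top concentration of the series not given in the record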
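With Hepes-Na pH 7.6 buffer containing 10 mM MgCl2, Sfp (15 nM) modified BHQ-2-YbbR (12.5 uM) using rhodamine-CoA (5 uM). Two reads 30 minutes apart at 525/598 nm yielded each well's rate.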
Menin-MLL FL inh – menin-MLL binding inhibition, fluorescein peptide; 290,000 tested, under 10 active; Fluorescence polarization, fluorescein-MLL peptide displacement from menin; FP activity change, % at 61.4 µM; AID 1766; inconclusive = falling polarisation curve, or a change in total fluorescence; inactive = total fluorescence flat and polarisation flat or rising; no compound was filed as active; the % refers to the polarisation; negative = inhibition;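 also: % of control where 0% means no effect; inhibitors lower the polarisation; unlabelled MLL peptide was the positive control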
PINK1 modulator – changes PINK1 expression; Potency, µM (highest dose often 76.6 µM), for the others: at the highest dose activation (PINK1 increase), most hits filed as activators; PINK1 immunofluorescence, high-content cytometry, 24 h; 410,000 compounds, 0.2% hits; active = well fitted activation curve with a large enough effect; inconclusive = small, poorly fitted or top-dose-only effect; inactive = flat fitted curve, though single readings scatter; cell line not stated here;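 also: potency is read from the fitted curve at half-maximal effect; % of control where 0% means no effect; nearly all actives have a fitted effect of over 65% in size; a mitochondrial uncoupler was the plate control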
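PINK1 protein, normally rapidly degraded, was detected by immunofluorescence after 24 hour compound treatment of a stable cell line. Titration data (5 concentrations) came from laser-scanning cytometry, with CCCP-treated wells as controls.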
The depositor's hits bear a star; ? = inconclusive; · = not tested or not shown; [ ] = dose if it differs, or a comment. This is a random part of the collection; 4.4% or so of the library scored in one or more.

Sequence of screens: TRPML1 inh	TRPV1 PAM	ClpP mod	TRPML1 ag	Sfp PPTase inh	Menin-MLL FL inh	PINK1 modulator
- On1c(-c2ccc(Cl)cc2)nc2ccccc21
→ -18	-18	·	-0.5	?	0.7	-0.2%
- C/C(=N\NC(=S)Nc1ccc(C(C)C)cc1)c1ccc2c(c1)OCO2
→ 8	-2	1.4%	0.2	0%	-3.5	-0.1%
- Cc1nn(-c2nc(-c3ccco3)cc(C(F)(F)F)n2)c(C)c1Br
→ -9	2	-1.1%	2.5	4%	-0.2	9.4%
- COc1ccccc1OCCn1cc(C(=O)C(C)C)c2ccccc21
→ 9	6	·	1.1	15%	1.6	8.9%
- CCOc1ccc(-c2cc(C(=O)NCc3ccc(OC)cc3)c3c(-c4ccc(F)cc4)[nH]nc3n2)cc1
→ 4	·	?	0.0	·	·	0.5%
- CCC(C)(C)NC(=O)C1CCN(c2nc(C)cc(C)n2)CC1
→ -19	-10	14µM*	0.5	16%	-1.2	-4.1%[38.3 µM]
- CCOC(=O)c1c(C)[nH]c(C)c1S(=O)(=O)N(C)CC(=O)N1CCN(c2ccccc2)CC1
→ -7	·	-1.5%	-1.0	·	·	0.2%
- Cc1cc(OCC(=O)N(Cc2sccc2C)C2CCS(=O)(=O)C2)ccc1Cl (stereo not drawn)
→ 18	·	0.6%	0.5	·	·	-0.4%
- Cc1cc(C)cc(NC(=O)CCCN2C(=O)C(c3ccccc3)Oc3cccnc32)c1 (stereo not drawn)
→ 35	2	-2.0%	2.4	14%	3.0	-0.8%
- COC(=O)c1ccc(/C=C/C(=O)c2cccc(OC)c2)cc1
→ 21	10	·	0.2	?	4.2	-2.0%
- CN(C(=O)c1ccc2c(c1)SC1=NS(=O)(=O)CCN12)C(c1ccccc1)c1ccccc1
→ -16	6	1.5%	0.1	5%	3.6	0.8%
- COc1ccc(CNC(=O)C2CCCN(S(=O)(=O)c3ccc4c(c3)C(C)(C)C(=O)N4C)C2)cc1 (stereo not drawn)
→ 13	-1	-0.1%	-0.7	4%	1.1	0.3%
- CC1=Nc2cc(C(=O)NCC3CCCO3)ccc2Sc2ccc(C)cc21 (stereo not drawn)
→ -4	-20	6.1%	-0.1	-6%	·	3.9%
- Cc1cccc(C(=O)NCc2nnc(SCC(=O)NC3=NCCS3)n2C)c1
→ -1	2	·	0.2	3%	0.4	-0.9%
- COC(=O)c1ccc(NS(=O)(=O)c2ccc3c(c2)n(C)c(=O)c(=O)n3C)cc1
→ -6	·	?	-0.2	·	·	2.3%

Limited to TRPV1 PAM, TRPML1 ag and Sfp PPTase inh, for some of the entries so far:
Structure	TRPV1 PAM	TRPML1 ag	Sfp PPTase inh
Cc1cccc(C(=O)NCc2nnc(SCC(=O)NC3=NCCS3)n2C)c1	2	0.2	3%
COC(=O)c1ccc(NS(=O)(=O)c2ccc3c(c2)n(C)c(=O)c(=O)n3C)cc1	·	-0.2	·

Complete entries, quoted from the list. Order of values: TRPML1 inh, TRPV1 PAM, ClpP mod, TRPML1 ag, Sfp PPTase inh, Menin-MLL FL inh, PINK1 modulator
Profile of Cc1cccc(C(=O)NCc2nnc(SCC(=O)NC3=NCCS3)n2C)c1 : -1, 2, ·, 0.2, 3%, 0.4, -0.9%
Profile of Cc1nn(-c2nc(-c3ccco3)cc(C(F)(F)F)n2)c(C)c1Br : -9, 2, -1.1%, 2.5, 4%, -0.2, 9.4%

More results
Sequence of screens: TRPML1 inh	TRPV1 PAM	ClpP mod	TRPML1 ag	Sfp PPTase inh	Menin-MLL FL inh	PINK1 modulator
- COc1cccc(C2/C(=C(/O)c3ccc4c(c3)CC(C)O4)C(=O)C(=O)N2c2nnc(C)s2)c1 (stereo not drawn)
→ -5	-11	-0.7%	-0.4	3%	·	1.0%
- FC(F)(F)COc1nc(OCC(F)(F)F)nc(N2CCN(c3ccccc3)CC2)n1
→ 12	1	-0.9%	-0.4	1%	4.0	12%
- Cc1cc(NC(=O)c2ccc3c(c2)C(=O)N(C(C)(C)C)C3=O)no1
→ -4	0	·	0.0	-10%	-0.6	2.3%
- CN(Cc1ccccc1)C(=O)c1[nH]cnc1C(=O)N[C@@H](CCCCNC(=O)OC(C)(C)C)C(=O)OC(C)(C)C
→ 10	0	0.9%	1.2	24%	4.3	1.5%
- CCCCC(=O)Nc1cccc(C(=O)N/N=C/c2ccc(OC)cc2OC)c1
→ 24	-1	-1.7%	0.0	4%	7.3	-1.4%
- Cc1cccc(OCc2nc(C#N)c(NCCN(C)C)o2)c1
→ -3	-18	-0.3%	0.1	16%	0.7	1.2%
- Cc1ccc(SCC(=O)Nc2cc(C)on2)cc1
→ 8	-3	-0.5%	0.6	19%	4.1	·
- Nc1cc(-c2nn[nH]n2)ccc1F
→ 15	19	-12%	-0.7	7%	0.6	1.4%
- O=C1CCc2cc(S(=O)(=O)NCCC(=O)N3CCN(c4cccc(Cl)c4)CC3)ccc2N1
→ -11	-6	-3.6%	0.5	-7%	2.7	0.2%[38.3 µM]
- C=Cc1ccc(Cn2nc(-c3ccccc3)ccc2=O)cc1
→ -11	-5	-0.5%	0.6	-25%	-1.7	0.2%
- Cc1nc2ccc(NC(=O)[C@@H](NC(=O)c3c(F)cccc3F)C(C)C)cc2s1
→ 0	-3	-3.9%	1.1	·	·	1.0%
- CC(=O)Nc1ccc(S(=O)(=O)N2CCN(CC(=O)N3CCOCC3)CC2)cc1
→ 4	-18	1.2%	0.0	-6%	0.0	2.6%
- CN(C)S(=O)(=O)c1cccc(NC(=S)N2CCCCC2CO)c1 (stereo not drawn)
→ 1	5	·	-0.5	-13%	0.6	-0.9%
- COc1ccc(C(=O)Nc2ccc3nc(N4CCCCC4)cc(C)c3c2)c(OC)c1
→ 23	0	-17%	-0.4	4%	3.2	1.1%
- COc1cc(-c2nc3cnccn3c2Nc2ccc(C)cc2)ccc1O
→ -4	6	-12%	0.1	8%	7.2	?

Sequence of screens: TRPML1 inh	TRPV1 PAM	ClpP mod	TRPML1 ag	Sfp PPTase inh	Menin-MLL FL inh	PINK1 modulator
- CCC(=O)N1CCN(c2nnc(-c3ccccc3)c3ccccc23)CC1
→ 21	-17	-0.1%	-1.4	7%	-4.2	0.6%
- O=C(CN1CCC(NC(=O)c2ccc(Br)cc2)CC1)NCc1cccs1
→ 28	1	1.2%	0.1	15%	1.9	0.6%
- O=C(O)c1cc(O)ccc1O
→ -8	·	4.8%	-0.5	·	·	-0.7%
- CCCSc1nnc2n(-c3ccc(OC)cc3)c(=O)c3c4c(sc3n12)COC(C(C)C)C4 (stereo not drawn)
→ 13	·	0.6%	2.2	·	·	0.4%
- CCOC(=O)C1CCN(S(=O)(=O)c2cn(C)cn2)CC1
→ 3	8	-0.7%	0.8	7%	·	-0.4%
- O=C(O)c1ccccc1SC1CC(=O)N(c2ccc3c(c2)OCO3)C1=O (stereo not drawn)
→ 6	5	·	-0.7	50µM*	6.8	1.0%
- Cc1ccc(S(=O)(=O)N2C=CC(C(F)(F)F)=NCC2)cc1
→ 12	1	-0.4%	0.0	0%	3.2	0.0%
- O=C(/C=C/c1ccccc1)c1ccc2c(c1)OCO2
→ -1	-1	0.1%	0.5	-6%	3.1	26%
- Cc1cc(NC(=O)CSCC(=O)OCC(=O)Nc2ccc(OC(F)F)cc2)no1
→ -6	7	-0.4%	-0.5	·	·	0.6%
- CSc1ncccc1C(=O)N1CCCC(C(=O)c2ccc3ccccc3c2)C1 (stereo not drawn)
→ 9	-5	·	0.1	-12%	3.4	-1.2%
- Nc1ccn([C@@H]2O[C@H](CN=C3NS(=O)(=O)c4ccccc43)[C@@H](O)[C@H]2O)c(=O)n1
→ -3	·	1.2%	0.3	·	·	4.6%
- CCC(C)c1ccccc1NC(=O)C(C)Sc1n[nH]c(N)n1 (stereo not drawn)
→ -14	-6	2.3%	-0.4	·	·	1.7%
- CCOc1cc(S(=O)(=O)NC2CCCCC2)ccc1F
→ -7	-4	0.4%	2.1	17%	2.7	-0.5%[38.3 µM]
- O=C(NCCCN1CCOCC1)c1ccc(NC(=O)C2COc3ccccc3O2)cc1 (stereo not drawn)
→ 29	?	·	-0.5	11%	-2.2	2.9%
- CC(=O)C1=C(c2ccccc2)NC(=O)NC1c1cccs1 (stereo not drawn)
→ -2	0	0.6%	0.3	6%	7.5	-0.9%

Single values from the results shown:
Sfp PPTase inh with CCOc1cc(S(=O)(=O)NC2CCCCC2)ccc1F → 17%
TRPML1 inh with CSc1ncccc1C(=O)N1CCCC(C(=O)c2ccc3ccccc3c2)C1 (stereo not drawn) → 9
ClpP mod with O=C(O)c1cc(O)ccc1O → 4.8%
ClpP mod with Nc1ccn([C@@H]2O[C@H](CN=C3NS(=O)(=O)c4ccccc43)[C@@H](O)[C@H]2O)c(=O)n1 → 1.2%

(next part)
Sequence of screens: TRPML1 inh	TRPV1 PAM	ClpP mod	TRPML1 ag	Sfp PPTase inh	Menin-MLL FL inh	PINK1 modulator
- CCn1c(SCC(=O)NC2CCS(=O)(=O)C2)nnc1-c1ccccc1 (stereo not drawn)
→ 33	-3	·	-0.3	26%	-2.4	2.5%
- Cn1cccc1C(=O)NC(=O)COC(=O)CNS(=O)(=O)c1ccc(Br)cc1
→ 8	4	-1.8%	0.5	17%	4.6	3.3%
- Cc1ccc(NC(=O)CN(C)C(=O)c2cc(C)on2)cc1
→ -3	19	0.4%	0.8	·	·	-0.8%
- COC(=O)C1=C(Nc2ccc(C)cc2)C=C(C)C(C(=O)OC)C1c1ccc(F)cc1 (stereo not drawn)
→ 4	13	-6.9%	4.0	4%	4.9	·
- COc1ccc(C(=O)NC(=S)Nc2ccc(S(=O)(=O)Nc3cc(C)on3)cc2)cc1OC
→ 3	14	·	0.6	15%	0.7	-2.1%
- CCCC(C)(C)C(=O)N1CCC1(C)C(=O)Nc1ccc(OC)c(OC)c1 (stereo not drawn)
→ ·	·	2.2%	-0.9	·	·	1.3%
